Screening results from PubChem BioAssay.
BasE inh: blocks the Acinetobacter baumannii siderophore enzyme BasE. purified BasE, fluorescence polarization binding displacement. inhibition, % (concentration not given with the values). 84,000 compounds, 0.1% hits. AID 485350;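 active = both replicates above 25% with normal brightness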;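 also: 0% = negative plate control signal and 100% = positive plate control signal; stock transfer was 100 nL into about 30 µL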
LANA-nucl inh: LANA-nucleosome interaction inhibition | z-score (no concentration beside the values) | AID 720717 | FITC-LANA1-23 / chicken nucleosome fluorescence polarization; hits give low values | 51,000 compounds, 0.3% hits;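 active = both repeat wells score below -2 in polarization z-score versus plate sample wells, excluding overly bright wells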;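 also: 100 nL library stock added to about 30 µL; numbers are from one replicate; some results filed as inactive read as strong as hits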
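Assay system: purified chicken nucleosomes with FITC-labelled LANA N-terminal peptide (1-23) / Probe or stimulus: 50 nM FITC-LANA1-23 probe / Compound dosing: pin-transferred compound, 100 nL / Times: compound with peptide–nucleosome mix 10–45 min at room temperature / Technique: fluorescence polarization, 480 nm excitation, 535 nm parallel and perpendicular emission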
An asterisk follows results filed as active; nt = not tested or not shown; & = joins results of further samples.

Order of results: BasE inh	LANA-nucl inh
- Cn1c(=O)c(C(=O)NCCCc2ccccc2)cc2cccnc21
  2.4	-0.42
- Cn1c(SCc2nnc(-c3ccc(Cl)cc3)o2)nc2sccc2c1=O
  -2.2	nt
- O=C(OCCN1C(=O)c2ccccc2C1=O)c1ccc(-n2cnnn2)cc1
  -1.0	nt
- Cc1cc2nc(N3CCCC3C(N)=O)c3ccccc3n2n1 (stereo not given)
  -1.5	nt
- O=C(Nc1cc2ccccc2oc1=O)c1ccccc1
  4.3	-0.17
- CCN(CC)c1ncccc1C(=O)NCc1cccs1
  1.0	-0.029
- Nc1[nH]c(=O)[nH]c(=O)c1N=Nc1ccc(S(=O)(=O)N2CCOCC2)cc1
  1.5	nt
- O=C1NC(=O)C2C1C(c1ccco1)NN2Cc1ccccc1 (stereo not given)
  -4.3	1.6
- Clc1ccc(Cn2ccc3ccccc32)cn1
  nt	1.3
- N#Cc1ccc(COC(=O)c2ccccc2)cc1
  1.7	0.57
- Cc1ccc(NC(=O)Cn2c(=O)n3nc(C)nc3c3ccccc32)cc1
  -0.4	nt
- CCCOC(=O)C1C2C=CC3(CN(CC4CCCO4)C(=O)C13)O2 (stereo not given)
  3.7	-0.79
- Cc1c(NC(=O)Nc2ccccn2)sc2nc3n(c(=O)c12)CCC(C)CC3 (stereo not given)
  1.5	0.017
- COCC(C)n1c(-c2cccs2)csc1=Nc1cccnc1 (stereo not given)
  -0.2	nt
- COC(=O)c1cc(=O)n(Cc2cccs2)c(=Nc2ccccc2)s1
  1.6	-0.2
- COc1cccc(C(=O)NCc2ccc3c(c2)cc(C)n3C)c1
  -0.8	-1.1
- C=CCc1cccc(Cl)c1OCCNCc1ccco1
  -1.6	-0.46
- Cc1c(C(=O)/C=C/N(C)C)nnn1-c1ccc(Cl)cc1C#N
  4.0	0.12
- CCN(C(=O)c1cnccc1C(F)(F)F)c1ccc(Cl)cc1Cl
  -1.6	nt
- CNS(=O)(=O)c1cn(CC(=O)N2CCc3ccccc32)cc1S(=O)(=O)NC
  -1.9	nt
- CC(Sc1nncn1C)C(=O)Nc1ccc(S(N)(=O)=O)cc1 (stereo not given)
  -0.6	nt
- CC(=O)Nc1ccc2c(CSc3nncs3)cc(=O)oc2c1
  -4.1	nt
- CC1CCN(c2ncnc3c2cnn3Cc2ccc(Cl)cc2)CC1
  0.6	nt
- Cc1ccc(CNc2ccc(Cl)cc2)s1
  1.0	-0.75
- Cc1cccc(/C=C2\SC(=O)N(C)C2=O)c1
  4.0	-0.85
- CN(C)C=NC(=O)c1sc(S(C)(=O)=O)c2c1CCC=C2
  -0.8	nt
- COc1ccc(C)cc1-n1c(SCC#N)nc2sc(C)c(C)c2c1=O
  0.9	nt
- O=C(NNc1ccccc1)c1ccccc1
  -0.7	0.35
- CCC(=O)Oc1ccc(C(=O)N2CCCCC2)cc1
  3.2	-0.3
- CCCc1c(C(=O)Sc2ccc(Cl)cc2)cnn1-c1ccccc1
  0.5	nt

Whole records, looked up by structure.
CC(=O)Nc1ccc2c(CSc3nncs3)cc(=O)oc2c1 in the list: BasE inh: -4.1; LANA-nucl inh: nt
Cc1c(C(=O)/C=C/N(C)C)nnn1-c1ccc(Cl)cc1C#N in the list: BasE inh: 4.0; LANA-nucl inh: 0.12

Next records
Order of results: BasE inh	LANA-nucl inh
- CC(C)C(OC(=O)c1ccco1)C(=O)NCc1ccccc1 (stereo not given)
  -2.8	0.46
- O=C(NC(C(F)(F)F)C(F)(F)F)OCc1ccccc1
  1.3	nt
- CC(C)N(C(=O)CSc1nnnn1C1CCCC1)C(C)C
  0.4	-0.63
- CC1(CCC#N)N=C(SCCC#N)N(c2ccccc2)C1=O (stereo not given)
  0.7	-0.7
- O=C(CSc1nnc2sc3ccccc3n12)NCC(F)(F)F
  2.1	nt
- CCCCN(C)C(=O)Cn1nc(C)c2c(C)n(-c3ccccc3)nc2c1=O
  1.7	nt
- Cc1cc(OCC(=O)Nc2ccccc2N2CCN(C(=O)C(C)C)CC2)cc(C)c1Cl
  0.8	0.36
- Cc1cc2nc3c(=O)[nH]c(=S)[nH]c3nc2cc1NC(=O)C(F)(F)F
  12	-1.9
- COc1cc(-c2nc3ccc(Cl)cn3c2NC(C)(C)C)ccc1O
  -2.0	0.093
- CC(C)C1C(C#N)=C(N)Oc2c1oc(CO)cc2=O (stereo not given)
  0.5	-0.024
- Cc1ccc(Nc2ccc3noc4c3c2C(=O)c2ccccc2-4)cc1
  6.6	nt
- Cc1nn(C(N)=S)c2c1CC(COCCC(C)C)O2 (stereo not given)
  -0.3	nt
- COc1cc(NC(=O)C2CCCCC2)c(OC)cc1NC(=O)CCC(=O)NCc1ccco1
  -0.8	0.46
- CSc1c(C#N)c(N)nc2sc(C(=O)c3ccc(Cl)c(Cl)c3)c(N)c12
  9.1	nt
- COC(=O)c1cc(CSc2nc3ccccc3n2CCC#N)oc1C
  -0.6	nt
- COC(=O)c1sc(N)c(C(=O)OC)c1Cn1nnc(-c2ccccc2)n1
  0.4	nt
- Cn1c(O)c(C=NC(Cc2c[nH]c3ccccc23)C(=O)O)c(=O)n(C)c1=O (stereo not given)
  -1.4	-0.85
- CCN1CCN(CCCNC(=O)c2ccc3c(=O)n4c(nc3c2)CCCCC4)CC1
  -1.4	-0.53
- COc1ccc(OC)c(/C=C/C(=O)Nc2cc(C(N)=O)cc(C(N)=O)c2)c1
  -1.3	nt
- Cc1nn(C(=O)C2CC2)c(C)c1Sc1ccccc1
  2.6	nt
- O=C(COC(=O)c1cccc2ccccc12)NC1CC1
  -0.5	nt
- Cc1cc(OCC(=O)N(C)C2CCCCC2)ccc1Cl
  -1.8	nt
- COc1ccc(Cn2cccc2C2=NCC(C)O2)cc1 (stereo not given)
  1.3	-0.67
- Nc1nc(N)nc(COc2ccccc2)n1
  -0.7	-0.58
- O=C1OC(c2ccc(Cl)cc2)/C(=C(/O)c2ccccc2)C1=O (stereo not given)
  2.6	nt
- Clc1cccc(-c2cc3nc4c(c(N5CCCCC5)n3n2)CCCC4)c1
  -0.3	-0.67
- CC1(C)CCc2cc(CN3CCN(c4ncc(C(F)(F)F)cc4Cl)CC3)ccc2O1
  -0.6	nt
- C/C(=N\NC(=O)c1ccc(NS(=O)(=O)c2cccs2)cc1)c1cccs1
  0.9	nt
- CC12CS(=O)(=O)CC1SC(=S)N2Cc1ccccc1 (stereo not given)
  -1.6	nt
- Cc1onc(-c2ccccc2)c1C(=O)ON=C1C2CC3CC(C2)CC1C3
  0.9	0.27

Reprinted at random: 2 compounds from above, in no set order.
Order of results: BasE inh	LANA-nucl inh
- Cc1ccc(NC(=O)Cn2c(=O)n3nc(C)nc3c3ccccc32)cc1
  -0.4	nt
- Cc1cccc(/C=C2\SC(=O)N(C)C2=O)c1
  4.0	-0.85

New compounds follow
Order of results: BasE inh	LANA-nucl inh
- CSc1nn(-c2ccccc2)cc1C(=O)N1CCCCC1
  0.2	nt
- Clc1ccc(Cn2nnc3c(SCc4cccnc4)ncnc32)cc1
  0.1	0.3
- N#CCCn1c(CC(N)=O)nc2ccccc21
  -2.1	0.058
- CCOc1ccc(-c2cn3c(n2)sc2cc(C(=O)NCc4cccs4)ccc23)cc1
  2.5	-0.46
- O=C(NCc1ccccc1)c1cc2ccc(O)cc2oc1=O
  2.5	-0.24
- O=C(ONc1cnc2ccccc2c1)c1ccco1
  -1.8	0.14
- O=C(N/N=C1/C(=O)c2cccc3cccc1c23)NC1CCCCC1
  2.9	nt
- COCCNS(=O)(=O)c1cc(Br)cc2c1N(C(C)=O)CC2
  0.1	-0.58
- Cc1ccc2onc(CNC(=O)Nc3cccc(C(F)(F)F)c3)c2c1
  0.4	0.049
- N#Cc1ccc(S(=O)(=O)N2CCN(S(=O)(=O)c3cccs3)CC2)cc1
  0.1	nt
- CC(C)N(C(=O)CSc1nc(=O)n2ccccc2n1)C(C)C
  2.7	-0.52
- O=C(COC(=O)c1cc2c(s1)CCC2)c1ccc[nH]1
  -2.1	nt
- CCC(CC)NC(=O)CN1C(=O)C2CC=CCC2C1=O (stereo not given)
  -0.9	nt
- Nc1c(-c2nc(-c3ccc4c(c3)OCO4)no2)nnn1-c1ccc(C(F)(F)F)c(Cl)c1
  -1.6	0.84
- CCNS(=O)(=O)c1ccc(-c2oc3cc(S(=O)(=O)NCC)ccc3c2Cl)cc1
  -3.0	nt

(listing goes on)
mol	BasE inh	LANA-nucl inh
CN(C1CCCCC1)S(=O)(=O)c1ccc(C(=O)Nc2nnc(-c3cccnc3)o2)cc1	-2.5	-0.25
CCCCC(=O)N1c2ccccc2NC2=C(C(=O)CCC2)C1c1ccc(N(C)C)cc1 (stereo not given)	0.5	0.23
COc1ccc2c(=O)c(-c3ccccn3)coc2c1	2.3	-0.39
CC1CCc2nn(CC(=O)N3CCc4ccccc43)cc2C1 (stereo not given)	-2.5	-0.71
CCn1c(SC(C)C(=O)NC(N)=O)nc2ccccc2c1=O (stereo not given)	0.8	nt
COc1ccc(-c2cn3cccnc3n2)cc1NC(=O)c1cc(OC)c(OC)c(OC)c1	2.1	1.2
Cc1cccc(C(C)C)c1NC(=O)c1cccnc1	-0.7	0.51
COc1ccccc1-n1c(-c2cccs2)nn(CN2CCCC(O)C2)c1=S (stereo not given)	1.4	nt
Oc1ccc(/C=N/n2c(-c3ccco3)csc2=Nc2ccc(F)cc2F)c(O)c1	0.3	nt
CC(Oc1cccc(Cl)c1)C(=O)O/N=C(\N)c1cccnc1 (stereo not given)	-3.3	0.9
C=CCn1ncc(OC)c(Cl)c1=O	3.3	0.066
O=C(OCCN1C(=O)c2ccccc2C1=O)c1ccccc1	2.1	nt
O=[N+]([O-])c1cccc2cn[nH]c12	nt	0.26
O=C(OCc1ncc(-c2ccccc2)o1)c1cc2c(s1)CCC2	1.0	nt
COCCCN1C(=S)NC2c3cccc(OC)c3OC1(C)C2C(=O)N(C)C (stereo not given)	-1.9	0.029
COC(=O)c1cccc(NC(=O)c2ccccc2C(=O)O)c1	-2.1	nt
Nc1ncnc2nc(SCCO)[nH]c12	-1.4	0.23
CCOC(=O)c1c(C)oc2ccc(OCC(N)=O)cc12	0.8	2.3
CCn1cc(C(=O)NC2CCCCCCC2)c(=O)c2cc(S(=O)(=O)N(C)C)ccc21	-5.6	2.4
C=CCNc1nc(C(=O)OCC(=O)N(C)C2CCS(=O)(=O)C2)cs1 (stereo not given)	0.4	nt
O=CN/N=C/c1ccc(C(=O)O)cc1	-0.1	nt
COc1cccc(Nc2nc3ccccc3nc2NS(=O)(=O)c2cccs2)c1	4.0	nt
CCN(CC)C(=O)C1CCCN(C/C=C/c2ccccc2)C1 (stereo not given)	1.4	0.36
NS(=O)(=O)c1ccc(CCNC(=O)c2ccc3c(=O)n4c(nc3c2)CCCCC4)cc1	0.9	nt
Cc1cc(C)nc(SCC(=O)Oc2ccc3oc(=O)cc(C)c3c2)n1	0.1	0.24
CCOc1ccccc1-c1n[nH]c(=S)n1N	1.9	nt
O=C1CC(N(Cc2ccc3c(c2)OCO3)C(=O)Nc2ccc(F)cc2)C(=O)N1c1ccccc1 (stereo not given)	2.7	0.064
NC(=O)c1cc(-c2csc(-c3ccccn3)n2)ccc1O	-0.6	nt
CCCC(=O)Nc1sc2c(c1C(N)=O)CCC2	1.5	1.1
O=C(CCc1ccccc1)NCC1COC2(CCCCC2)O1 (stereo not given)	0.7	-0.95
CC(=NCCc1ccccc1)C1=C(O)CSC1=O	0.7	nt
C[C@H]1CC2C([C@@H](O)C[C@@]3(C)C2CC[C@]3(O)C(=O)CO)[C@@]2(C)C=CC(=O)C=C12 (stereo not given in full)	-0.2	-0.2&-0.15
Nc1nnc(CCc2ccccc2)s1	0.8	0.55
Cn1cnnc1Sc1ccc(Cl)cc1N	-1.1	nt
C=CCn1c(C)cc(C(=O)CSc2nc3ccccc3[nH]2)c1C	-1.0	nt
COC(=O)c1nnn(CC(=O)NC(=O)Nc2ccccc2)c1C(=O)OC	1.0	-0.64
NC(=O)C(C(=O)/C=C/c1ccccc1)=C1SCCS1	0.9	nt
CCCCNc1c2c(c(C#N)c3nc4ccccc4n13)CCC2	0.8	-0.67
CCOC(=O)c1nc(-c2cc[n+](C)cc2)no1	2.9	-0.57
Cc1ccc(NC(=O)Cn2c(C(F)(F)F)nc3ccccc32)cc1	nt	-0.63
CN(C)Cc1n[nH]c(=S)o1	1.0	nt
CCOC(=O)c1oc2ccc(Br)cc2c1CSc1nnc(C)s1	-2.2	nt
CC1CCCCC1NC(=O)CSc1nncs1 (stereo not given)	2.2	nt
CCn1c(=O)sc2cccc(Cl)c21	0.3	-0.46
CSCCSc1nnnn1-c1ccc(O)cc1	4.3	nt
COC(=O)c1ccc(S(=O)(=O)NCc2ccc(N3CCN(C)CC3)cc2)o1	0.5	-0.19
C=CCSc1nnc2c(n1)OC(CC)Nc1ccccc1-2 (stereo not given)	0.8	0.093
C=CCn1cc(C(=O)c2cc(C)ccc2O)cc(C#N)c1=O	2.4	nt

The list is partial; rates above refer to the full screens.
